E coli growth = E. coli growth inhibition, primary screen, OD600; OD600 absorbance (test concentration not listed); Escherichia coli growth, 23 h; stronger effect = lower value; 330,000 tested, 0.21% active; AID 1053175, 2014;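 active = OD600 absorbance below the run mean of sample wells minus 3.6 SD, in any replicate, cut at about 0.56 in these data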;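 note: stock transfer was 300 nL into about 60 µL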
Active calls of the source: *; & = joins results of further samples. This is a subset, so the mix of outcomes need not match the whole.

SMILES	E coli growth
O=C(CSCc1ccc([N+](=O)[O-])cc1)NN=Cc1ccncc1	0.69
CSCC[C@H](N)C(=O)NCC1CCC(C(=O)N[C@@H](Cc2ccccc2)C(=O)O)CC1 (stereo partly specified)	0.68
COCCN1C(=O)N(C)C(c2ccccc2)C(C(C)=O)=C1C (stereo unspecified)	0.63
O=C(CNC(=O)c1ccccc1Cl)NN=Cc1ccc([N+](=O)[O-])s1	0.7
Fc1ccc(NC(=S)NN=Cc2ccc(F)c(F)c2)cc1	0.72
COc1ccc(C=Nc2oc(-c3ccccc3)cc2C#N)cc1	0.75
O=C(NN=C/C=C/c1ccccc1)C(O)c1ccccc1 (stereo unspecified)	0.71
CSc1ccc(C=NNc2cccc(C(=O)O)c2)cc1	0.71
CC(=O)CC(O)CC(=O)C1OC(=O)CCC=CCc2ccccc21 (stereo unspecified)	0.7&0.68
COC(=O)CC=CC(C)C(C=NOC(C)c1cn(C(CO)Cc2ccccc2)nn1)NS(=O)(=O)c1ccc(C)cc1 (stereo unspecified)	0.68
CCn1ncc(C=NO)c1C	0.76
CCOC1OC(C(=O)NCc2nc3ccccc3[nH]2)=CC(c2ccc(Br)cc2)C1CCCO (stereo unspecified)	0.68
CCN(CC)C(=O)C[n+]1cccc(C=NO)c1	0.66
CCN1C(=O)C2C(c3ccc(C)cc3)N3C(=O)N(c4cccc(Br)c4)C(=O)[C@@]3(CC(C)C)C2C1=O (stereo partly specified)	0.72
O=C(NN=Cc1ccc(F)cc1)c1ccc(OCc2ccccc2)cc1	0.7
C[C@@]12C(=O)N(c3ccc(Cl)cc3)C(=O)N1C1c3ccccc3OCC1C2c1ccccc1 (stereo partly specified)	0.69
CCOC(=O)C(=NNc1ccc(Cl)cc1)S(=O)(=O)c1ccccc1	0.64
Oc1ccc(C=Nn2c(-c3ccccc3)n[nH]c2=S)cc1	0.7
CCOc1ccc(C=NN2C(=O)C(CC(=O)Nc3ccc(F)cc3F)SC2=NC)cc1OC (stereo unspecified)	0.66
CC(C)c1ccc(C(=O)NN=Cc2cccc(Cl)c2Cl)cc1	0.75
CC1(C(=O)N2CC3(CC(c4cccc(NC(=O)CC(c5ccccc5)c5ccccc5)c4)=NO3)CC2C(N)=O)CC1 (stereo unspecified)	0.65
CC(=NO)C(CN(C)C)=NO	0.75
COc1ccc(C2CC(=O)C=C(c3ccc(C)cc3)C2)cc1OC (stereo unspecified)	0.69
CC(Cc1ccccc1)=NNC(=O)CNC(=O)c1ccc2c(c1)OCCO2	0.71
CC(=NN=C(N)N)c1cccc([N+](=O)[O-])c1	0.68
CCN(CC)C(=NS(=O)(=O)c1ccc(F)cc1)c1ccccc1	0.7
CC(C)(C)OC(=O)CCC(C(=O)NCCCCCCCCCCC(=O)N1CCN(C(=O)OC(C)(C)C)CC1)n1cc(CCCCCNC(=O)OC(C)(C)C)nn1 (stereo unspecified)	0.75
CCN(CC)c1cnn(CC(=NOC)c2ccc(Cl)cc2)c(=O)c1Br	0.74
Fc1cccc(CCN2C(=S)NCC2CC2CCCCC2)c1 (stereo unspecified)	0.68
CC(=NNc1c(Cl)c(Cl)nc(C(=O)O)c1Cl)c1ccc(O)cc1	0.63
Cc1ccc(C(=O)NC(N)=Nc2nc3ccccc3o2)cc1	0.74
Clc1ccc(C=NN2CCCCC2)cc1	0.66
COc1ccc(C(=O)NN=Cc2ccc(OC)c(COc3c(F)c(F)cc(F)c3F)c2)cc1	0.69
COc1ccc(C(=O)NN=Cc2c[nH]c3ccccc23)cc1	0.65
Oc1ccccc1C=N[n+]1ccccc1	0.7
CC1CN(C(C)CO)C(=O)c2cccc(NS(=O)(=O)c3ccc(F)cc3)c2OC1CN(C)Cc1ccc(-c2ccccc2)cc1 (stereo unspecified)	0.72
COc1ccc(C=NNc2ccc(C(=O)O)cc2)cc1Br	0.66
COC(=O)NN=C1CCCc2ccccc21	0.71
CC(=O)C=C(C)NC(Cc1c[nH]c2ccccc12)C(=O)O (stereo unspecified)	0.68
CCOC(=O)NN=Cc1ccc([N+](=O)[O-])o1	0.45*
CC(=NNC(=S)NC1CCCCC1)c1cccs1	0.7
COc1ccc(-c2ccc3c(c2)OC(=Cc2ccsc2)C3=O)cn1	0.69
Cc1cc(C=NO)c(C)n1-c1ccncc1	0.74
CCN1CC2C3C(=O)N(Cc4ccccc4)C(=O)C3[C@](C)(C1=O)N2C(=O)c1ccc(C(C)(C)C)cc1 (stereo partly specified)	0.66
CC1(C)S/C(=N/N=Cc2ccco2)NC1=O	0.67
CC(=NNC(=S)NC1CCCCC1)c1cccc(C(F)(F)F)c1	0.68
Cc1cc(C(=O)NN=Cc2cccn2C)no1	0.68
COc1ccc2c(c1[N+](=O)[O-])CCCC2=NOC(=O)c1ccccc1SC	0.74
O=C(C1CC=CC2CCN(Cc3ccccc3)C(=O)C21)N1CCN(c2ccccc2)CC1 (stereo unspecified)	0.67
COC1(OC)C(=NO)C(=NO)CCC1O (stereo unspecified)	0.67
CCCN1CCC(=O)N(C(CN=[N+]=[N-])CC(C)C)CC1 (stereo unspecified)	0.72
COC(=O)[C@@]12CCCCN1C(c1ccc(-c3cc(C(C)=O)cs3)c(OC)c1)C1C(=O)N(C)C(=O)C12 (stereo partly specified)	0.71
CSc1sccc1C=NNC(=O)c1ccncc1	0.69
CCOc1ccc(Br)cc1C(=O)NN=Cc1ccc([N+](=O)[O-])cc1	0.68
O=C(O)CC1S/C(=N/N=Cc2ccc(-c3ccc(Cl)c([N+](=O)[O-])c3)o2)NC1=O (stereo unspecified)	0.71
CON=C(c1ccccc1)c1cccnc1	0.7
CC1=NN(c2ccccc2)C(=O)C1=Cc1ccc(Oc2ccc([N+](=O)[O-])cc2[N+](=O)[O-])cc1	0.74
CC(=NNC(=S)NCCc1ccccc1)c1ccc(C)cc1	0.68
CC(C)CC(COc1ccccc1)N1CCN(CCc2ccccc2)CCC1=O (stereo unspecified)	0.68
CC(=NNC(=O)c1cccc(S(=O)(=O)N2CCOCC2)c1)c1ccc(O)cc1	0.69
The list goes on:
SMILES	E coli growth
Cc1cc(C=NNC(=O)c2cccc([N+](=O)[O-])c2)c(C)n1-c1ccccc1	0.68
COc1ccc(C=Nn2c(C)nc3sc(C)c(C)c3c2=O)cc1OC	0.71
CC(=NNc1cc(Cl)nc(C)n1)c1ccccc1	0.68
COc1cccc(C(=O)NCC(=O)NN=C(C)C=Cc2ccccc2)c1	0.72
Cc1c(NC(=S)NN=Cc2ccccc2O)c(=O)n(-c2ccccc2)n1C	0.67
CN1CCN(N=Cc2ccc(Cl)c(Cl)c2)CC1	0.68
CCC(=O)N(C)CCc1cc2c(c(OC)c1C=NNC(=O)c1ccncc1)OCO2	0.66
C=CCn1c(=C(C#N)c2nnc3n2CCCCC3)sc(=Cc2ccc(Cl)cc2)c1=O	0.7
Cc1cc(-c2ccccc2)nc(NN=Cc2ccc(O)cc2O)n1	0.71
O=[N+]([O-])c1ccc(NN=Cc2ccccc2O)cc1	0.58
O=C(C1=CC(c2ccccc2)CC(OCc2ccc(CO)cc2)O1)N1CCN(Cc2ccccc2)CC1 (stereo unspecified)	0.69
Cc1ccccc1C(=O)NN=Cc1ccc([N+](=O)[O-])s1	0.67
COc1ccc(C=NNC(=O)c2ccc(C)cc2)cc1CN1CCN(c2ccc(F)cc2)CC1	0.65
COc1cccc(C=NNC(=O)C2=NNC(=O)C2C)c1O (stereo unspecified)	0.67
COCc1cc(C)nc(OCC(=O)NN=Cc2ccccc2O)c1C#N	0.69
CC(=O)N(C(C)=O)c1nc(-c2ccccc2)cn1N=Cc1cccc([N+](=O)[O-])c1	0.63
O=C(NN=Cc1cccs1)c1cc(-c2cccc3ccccc23)n[nH]1	0.7
CCCCC1CN=C(N)N1CCCC (stereo unspecified)	0.69
CCCCN=C1CC(C)(C)CC(=O)/C1=C(\O)CCCN1C(=O)c2ccccc2C1=O	0.69
CC(=NNC(=O)CCC(=O)NCc1ccccc1)c1ccco1	0.67
COc1ccc(C2C=CCN(C(=O)C3CC3)C(Cc3ccccc3)C(=O)N2Cc2ccc(F)cc2)cc1 (stereo unspecified)	0.72
Cc1ccc(C=NN2CCN(Cc3ccccc3)CC2)o1	0.68
O=C(NN=Cc1cc(Br)cc(Cl)c1O)c1ccc2c(c1)OCO2	0.66
O=C1CC(C(=O)Nc2ccc(Cl)cc2)S/C(=N\N=Cc2ccco2)N1 (stereo unspecified)	0.69
CCC1=C(OC(=O)N(CC)CC)N2C(=O)OC(=NCC3CC3)[C@]2(Cc2ccccc2)C2C1=CCC1C(=O)NC(=O)C12 (stereo partly specified)	0.7
O=C(NN=C1CCCc2ccccc21)c1ccccc1[N+](=O)[O-]	0.7
O=C(NN=Cc1cccc(O)c1)c1csc2ccccc12	0.69
O=[N+]([O-])c1ccc(Cl)c(C=Nn2c(COc3ccccc3)n[nH]c2=S)c1	0.67
CCCCC1CNCCN1CC1(c2ccccc2)CC1 (stereo unspecified)	0.66
CC(CCC(=O)NCC(=O)O)C1CCC2C3C(O)CC4CC(O)CC[C@]4(C)C3CC(O)[C@]12C (stereo partly specified)	0.71&0.71&0.68&0.67
COC(=O)CCC(=O)OC1(C)C(=O)C=C2C=C(C3CC3)N(CC(C)C)C=C2C1=O (stereo unspecified)	0.67
CC(=NNc1ccc([N+](=O)[O-])cc1[N+](=O)[O-])C(C)C(C)C (stereo unspecified)	0.7
Cn1c(C(C#N)=NO)nc2ccccc21	0.71
CN(C)c1ccc(C=NN2CCN(c3ccccn3)CC2)cc1	0.64
CC(C=NNC(=S)Nc1cccc(S(=O)(=O)N(C)C)c1)c1ccccc1 (stereo unspecified)	0.67
COC(=O)NN=Cc1sc(N2CCCCC2)nc1-c1cccs1	0.71
CNC(=O)C1CC1C(NC(=O)OCc1ccccc1)c1ccccc1 (stereo unspecified)	0.71
Cc1cc(C=NNC(N)=S)c(C)n1-c1ccc(Br)cc1	0.68
NC(=O)NN=Cc1cccc(C(F)(F)F)c1	0.68
Cc1ccc(C(=O)NN=Cc2nc3ccccc3n2C)cc1	0.68
COc1ccc(-c2cc(C(=O)NN=Cc3cc(OC)c(OC)cc3OC)c3ccccc3n2)cc1	0.68
COc1cc(NC(=O)COC(=O)CON=C(C)c2ccc3c(c2)OCO3)cc(OC)c1	0.7
Cc1ccc2c(c1)NC(=O)[C@@]1(C)C(c3ccccc3)C3COc4ccccc4C3N1C2=O (stereo partly specified)	0.73
CC(C)C(NC(=O)C(CCCN=C(N)N)NC(=O)NC(Cc1ccccc1)C(=O)O)C(=O)NC(C=O)CCCN=C(N)N (stereo unspecified)	0.67
CC1Cc2ccccc2N1C(=O)CON=Cc1ccccc1OC(F)F (stereo unspecified)	0.68
COc1ccc(C(=O)NCC(=O)NN=Cc2ccc([N+](=O)[O-])s2)cc1OC	0.72
Cc1ncc(CO)c(C=NN=Cc2ccccc2O)c1O	0.64
COCCN1C(=O)NC(c2cccc(C(F)(F)F)c2)C(C(C)=O)C1C (stereo unspecified)	0.69
CC(C(=O)NCc1ccc(S(C)(=O)=O)cc1)C1C[C@@]1(C)C(NC(=O)OCc1ccccc1)c1ccccc1 (stereo partly specified)	0.71
COc1ccc2[nH]c(C(=O)NN=Cc3ccc(O)cc3O)cc2c1	0.63
Cc1[nH]c2ccccc2c1C=NNc1nc(Nc2ccc(F)cc2)nc(N2CCOCC2)n1	0.76
CC(=NNC(=O)c1ccncc1)c1cccnc1	0.68
CCOC(=O)N1C2=NC(C(=O)OC)=C(C(=O)OC)C3N(C)c4ccc(OC)cc4[C@]23CC1C(=O)OC (stereo partly specified)	0.66
COc1cc(C=NNC2=NS(=O)(=O)c3ccccc32)cc(OC)c1OC	0.66
COc1ccc(C=Nn2c(=S)n(C)c3ccccc32)cc1OC	0.73
CC1OC(OC2C(OC3C[C@]4(C)C(CC(O)C5C([C@]6(C)CCC(C(C)(C)O)O6)CC[C@]54C)[C@@]4(C)CCC(O)C(C)(C)C34)OC(CO)C(O)C2O)C(O)C(O)C1O (stereo partly specified)	0.7&0.67
O=C(NN=Cc1c(Cl)nc2ccccn2c1=O)c1cccnc1	0.68
CC(CC(=O)NC1CCCC1)=NNC(=O)Cc1cccs1	0.76
O=C(CN1c2ccccc2Sc2ccccc21)NN=Cc1ccc(Cl)cc1	0.69
O=C(Cn1cncn1)NN=Cc1cc([N+](=O)[O-])ccc1O	0.62
Cc1cc(NN=Cc2ccccc2Cl)nc(NCc2ccccc2)n1	0.65

Compound activity from PubChem.
